Source: PubChem BioAssay (National Center for Advancing Translational Sciences (NCATS))
GLA inh pH 4.5: blocks human alpha-galactosidase A at pH 4.5. purified enzyme, 4-MU-alpha-Gal fluorescence, pH 4.5. activity change, negative = inhibition, % at 105 µM. 230,000 tested, under 10 active. AID 1467; inconclusive = small, poorly fitted or top-dose-only inhibition, or a rising curve; inactive = flat fitted curve, though single readings scatter; no compound was filed as active;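 also: 0% = full activity with enzyme and -100% = basal without enzyme; dose as in the result columns while the protocol names 77 µM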
Target sequence (P06280 whole entry, looked up): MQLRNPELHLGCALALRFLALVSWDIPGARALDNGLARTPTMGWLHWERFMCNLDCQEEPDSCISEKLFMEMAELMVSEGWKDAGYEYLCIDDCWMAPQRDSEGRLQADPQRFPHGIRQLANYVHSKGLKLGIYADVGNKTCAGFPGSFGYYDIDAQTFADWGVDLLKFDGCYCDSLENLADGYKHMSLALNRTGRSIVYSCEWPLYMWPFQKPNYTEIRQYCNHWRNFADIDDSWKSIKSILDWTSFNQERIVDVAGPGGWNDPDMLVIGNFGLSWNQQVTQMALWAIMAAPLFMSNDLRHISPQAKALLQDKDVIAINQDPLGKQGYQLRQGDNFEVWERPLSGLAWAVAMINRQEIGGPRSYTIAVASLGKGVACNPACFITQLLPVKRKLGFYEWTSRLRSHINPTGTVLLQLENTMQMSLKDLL
Rango-impB inh: Rango-importin beta binding inhibition | Rango CFP/YFP FRET sensor + importin beta, 45 min | Potency, µM (doses to about 92.2 µM), for inactives: top-dose inhibition of complex formation | 340,000 compounds, 0.031% hits | AID 540263; active = rising FRET ratio curve, often small or poorly fitted; inconclusive = mostly compound fluorescence or quenching in the first reads; inactive = flat curves in all reads;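 also: potency is read from the fitted curve at half-maximal effect; 0% = DMSO wells and 100% = buffer wells lacking importin beta; nearly all actives have a fitted effect of over 15% in size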
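Inhibition scored from the CFP 486 nm/YFP 530 nm FRET ratio 45 min after adding 0.125 microM importin beta to 50 nM Rango biosensor preincubated 5 min with compound (room temperature, PBS with DTT, Tween-20, BSA). No-importin wells as positive control.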
miR-21 reporter: raises the signal of a miR-21 reporter; HeLa miR-21 FLuc reporter, luciferase, 48 h; Potency, µM (doses to about 38.3 µM), for the others: at the highest dose reporter change, positive = more light; 340,000 tested, under 10 active; active = well fitted rising curve with a large enough effect; inconclusive = small, poorly fitted or top-dose-only effect; inactive = no such curve, though single readings can be large or run the other way;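 also: % of control where 0% means no effect; miR-21 action dims this reporter so a rising signal means less miR-21 action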
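HeLa cells stably expressing CMV-driven firefly luciferase with a downstream miR-21 binding sequence, endogenously expressing miR-21, were treated with titrations (up to about 40uM final) for 48 hours at 37 degree Celsius. Luciferase luminescence was read after lysis.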
Rango release inh: inhibitors of RanGTP-induced Rango-importin beta complex dissociation; Biochemical FRET Rango-importin beta, RanGTP-induced dissociation; Potency, µM (doses to about 46.1 µM), inactives show top-dose activity change, negative = inhibition; O95149+P62826; 340,000 compounds, 0.071% hits; active means falling FRET ratio curve, often poorly fitted, with flat reads before Ran was added; inconclusive means other falling curves, or compound fluorescence or quenching; inactive means flat or rising ratio curve;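 also: potency is read from the fitted curve at half-maximal effect; % of control where 0% means no effect; nearly all actives have a fitted effect of over 45% in size; -100% = wells without RanGTP and RCC1; the record marks most hits as doubtful in a second field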
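Two FRET readings bracket the reaction: one 5 min after compound meets Rango–importin beta, another 45 min after RanGTP-RCC1 (0.6 uM Ran, 0.2 uM RCC1, 2 mM GTP) is added. Only the second defines inhibition.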
* = called active by the depositor; ? = inconclusive; · = not tested or not shown; & = joins results of further samples.

compound | Rango-impB inh | Rango release inh | miR-21 reporter | GLA inh pH 4.5
Cc1cc(C=O)c(C)n1C1CC1 | 2.1% | -13% | 0% | -9
CC(=Nc1ccc2c(c1)CCC2)c1c(O)n(-c2ccccc2)c(=O)[nH]c1=O | -2.6% | 22% | -10% | 0
COC(=O)C1=C(c2ccc(F)cc2OCc2ccccc2)C[C@@H]2CC[C@H]1N2C(=O)NCc1ccccc1Br | 0.9% | 11% | · | ·
COc1ccc2[nH]cc(C(=O)CN(C)C)c2c1 | 1.1% | 3% | · | ·
CN1CCCN(C(=O)COc2ccccc2)CC1 | -3.6% | -22% | -1% | ·
C[n+]1c(-c2ccccc2)sc2ccccc21 | 0.1% | 1% | -4% | ·
c1ccc(CCNC2CCCCCC2)cc1 | 4.2% | 10% | -1% | ·
NP(=O)(OCC(F)(F)F)Oc1ccccc1 (configuration not stated) | 1.3% | 12% | · | ·
Cc1ccc(N2CCNCC2C)cc1 (configuration not stated) | 3.4% | 1% | · | ·
Cc1cccc(OP(=O)(Nc2cccnc2)Oc2cccc(C)c2)c1 | 4.5% | -11% | 1% | 6
CCCN1CCc2cc(O)cc3c2[C@H]1Cc1ccc(O)c(O)c1-3 | -3.9% | -28% | · | ·
CN(CC(=O)NC(=O)NCc1ccco1)CC(=O)Nc1ccccc1Cl | ? | 16% | 3% | -3
Cc1cccc(-n2c(O)c(/C=N/Nc3nc4c(c(=O)n(C)c(=O)n4C)n3C)c(=O)[nH]c2=S)c1 | ? | -18% | -2% | 0
COc1ccc2c(c1)C(c1ccc(N(CCCl)CCCl)cc1)=NCC2 | ? | -24% | · | ·
O=C1CN=C(c2ccc(Cl)cc2)c2oc3ccccc3c2N1 | 1.3% | -6% | -3% | -8
COc1cc(C2c3cc4c(c(O)c3CC3COC(=O)C32)OCO4)cc(OC)c1OC (configuration not stated) | -0.1% | 7% | · | -8
Nc1ccccc1C(=O)OCCOc1ccccc1 | 1.9% | 11% | -18% | -16
COc1ccc(CN2Cc3cnnn3-c3ccccc3C2C)cc1 (configuration not stated) | 4.4% | 1% | · | ·
C=CCN1C(=O)/C(=C/c2ccc3c(c2)CCCN3CCC)C(=O)NC1=S | ? | -15% | -6% | -1
O=C(c1cccc(Cl)c1)C1CCCN(Cc2cccc3cnccc23)C1 (configuration not stated) | 1.8% | -7% | 5% | -2
CC(=O)N1Cc2cnnn2-c2ccccc2C1C#N (configuration not stated) | 4.7% | 18% | · | ·
COC(=O)C1=C(c2cc3ccccc3s2)C[C@@H]2CC[C@H]1N2C(=O)N1CCC(O)CC1 | 0.3% | -7% | · | ·
CC(C)(C#CC(=O)O)OOC(c1ccccc1)(c1ccccc1)c1ccccc1 | -4.1% | 14% | 12% | ·
CCN1CCN(C(=O)Cc2c(C)n(C(=O)c3ccc(Cl)cc3)c3ccc(OC)cc23)CC1 | 0.8% | 10% | -7% | -1
COC(=O)CC1=C(C(=O)OC)C2(C(=O)N(C)c3ccccc32)C(C#N)=C(N)O1 (configuration not stated) | -1.5% | 7% | 1% | 3
CCCC(=O)NC(Oc1ccc(OC)cc1)C(Cl)(Cl)Cl (configuration not stated) | 3.2% | 5% | -2% | 4
Cn1c[n+](C)cc1C(O)c1ccccc1 (configuration not stated) | 0.7%&-3.3% | -23%&0% | 2%&1% | -9&4
c1ccc2c(CN3CCCCCC3)c[nH]c2c1 | 1.0% | 4% | -67% | 4
O=C(NC(Cc1ccccc1)C(=O)N1CCC2(CC1)OCCO2)C1CCCCC1 (configuration not stated) | 1.7% | -6% | 1% | 1
CCN1/C(=C\C=C\C2=[N+](CC)c3ccccc3C2(C)C)C(C)(C)c2ccccc21 | ? | -20% | ? | 7
O=[N+]([O-])c1ccccc1CCl | 2.4% | -14% | · | ·
CCC(=O)c1cc(F)c(N2CCN(CC)CC2)cc1C | -1.2% | -2% | -15% | 2
CC12CCC(=O)CC1CCC1C2C(=O)CC2(C)C1CCC2(C)O (configuration not stated) | -1.1% | -4% | · | ·
COC(=O)[C@@H]1[C@@H](C(=O)OC)C2(c3ccccc3-c3ccccc32)N(c2ccc(Cl)cc2)N1C#N | 1.1% | 1% | ? | -17
Cc1ccc2c(c1)N(C(C)C(=O)N1CCC3(CC1)OCCO3)C(=O)CO2 (configuration not stated) | 2.6% | 1% | -6% | ·
CCCCn1c(O)c(C(CC)=NCc2ccco2)c(=O)[nH]c1=O | ? | 8% | -1% | -4
O=C(NCCN1CCOCC1)c1ccc(Cl)nc1Cl | -2.3% | -26% | -3% | 1
Cc1ccccc1N1C(=O)NC(=O)/C(=C/c2ccc(N3CCOCC3)o2)C1=O | ? | -30% | -4% | -4
CC12CN3CC(C)(CN(C1)C3c1cccs1)C2=O (configuration not stated) | 1.1% | 1% | 1% | 3
CCOC(=O)C1=C(N)Oc2cc(C)oc(=O)c2C12C(=O)N1c3c(cccc32)C(C)CC1(C)C (configuration not stated) | 4.9% | 33% | -4% | -1
C[C@H]1CC2C3CC=C4C[C@@H](O)CC[C@]4(C)C3CC[C@]2(C)[C@H]1O (some centres not stated) | 1.4% | -4% | · | ·
CC(C)N(Cc1ccco1)/N=C/c1c(O)n(Cc2ccccc2)c(=O)[nH]c1=O | -0.5% | 9% | 2% | -4
C[N+]1(C)[C@@H]2CC[C@H]1CC(OC(=O)C(c1ccccc1)c1ccccc1)C2 (some centres not stated) | 0.0% | 6% | -1% | ·
C[N+]1(C)C2CCC1CC(OC(=O)c1ccccc1)C2 (configuration not stated) | -2.4% | 1% | 2% | -6
Cc1cc(=O)oc2cc(OCC(=O)N3CCN(Cc4ccc5c(c4)OCO5)CC3)ccc12 | 0.6% | 8% | 2% | ·
O=C1NC(=O)C(CCc2ccncc2)(C2CCCCC2)C(=O)N1 | -1.4% | 7% | -8% | 12
c1ccc2nc(N3CCNCC3)ccc2c1 | -2.0%&-0.2% | 1%&8% | · | -2&0&0&6
C=CCN1CC[C@]23c4c5ccc(O)c4OC2C(O)C=CC3[C@H]1C5 (some centres not stated) | ? | -7% | · | ·
CN(N)N=Nc1nc2c([nH]1)c(=O)n(C)c(=O)n2C | 0.0% | 0% | 10% | -3
CC1CCC(C)(NS(=O)(=O)OCC(Cl)(Cl)Cl)CC1 (configuration not stated) | 0.0% | 7% | -5% | ·
COc1ccc(OC)c([C@@H](O)[C@H](C)NC(C)(C)C)c1 | -2.8% | 0% | -7% | ·
O=c1[nH]c(=O)n(Cc2ccccc2Cl)c(O)c1C=Nc1ccc(F)cc1 | 2.6% | 11% | 2% | 6
CCN1CCN(S(=O)(=O)c2ccc(Cl)nc2)CC1 | 1.9% | 16% | -6% | -10
CC1CCN(CC(=O)c2cccc(C(F)(F)F)c2)CC1 | -0.6% | -2% | 1% | ·
COC(=O)C1=C(c2cccc(C#N)c2)C[C@@H]2CC[C@H]1N2C(=O)NCCOc1ccc(OC)cc1 | -0.7% | -7% | · | ·
COC(=O)C1=C(c2ccc(Cl)c(C(F)(F)F)c2)C[C@@H]2CC[C@H]1N2C(=O)NC(C)C | 5.8% | -10% | · | ·
CC(=O)N1CC(=O)Nc2ccc(Cl)cc2C1c1ccccc1 (configuration not stated) | 5.2% | 9% | 1% | ·
O=C1CC(N2CC=C(c3ccccc3)CC2)C(=O)N1c1ccc(F)cc1 (configuration not stated) | -0.3% | -15% | -3% | -3
CC(C)(C)c1ccc(O)c(N=Cc2c(O)ccc3ccccc23)c1 | ? | ? | 0% | ·
O=P(Nc1cccc(F)c1)(Oc1ccccc1F)Oc1ccccc1F | -1.4% | 20% | 11% | -3

Full records as entered above. Values in the order: Rango-impB inh | Rango release inh | miR-21 reporter | GLA inh pH 4.5
CC(C)(C)c1ccc(O)c(N=Cc2c(O)ccc3ccccc23)c1 reads ? | ? | 0% | ·
O=c1[nH]c(=O)n(Cc2ccccc2Cl)c(O)c1C=Nc1ccc(F)cc1 reads 2.6% | 11% | 2% | 6
COC(=O)C1=C(c2cccc(C#N)c2)C[C@@H]2CC[C@H]1N2C(=O)NCCOc1ccc(OC)cc1 reads -0.7% | -7% | · | ·

Next section.
compound | Rango-impB inh | Rango release inh | miR-21 reporter | GLA inh pH 4.5
CCOC(=O)c1cc(C)sc1/N=C/C1C(=O)NC(=S)NC1=O | ? | -24% | -10% | 1
COC(=O)C(C)Oc1cc(C)cc2oc(=O)c3c(c12)CCCC3 (configuration not stated) | 0.8% | 2% | 0% | -11
O=P(NS(=O)(=O)c1ccc(Br)cc1)(Oc1ccccc1)Oc1ccccc1 | -0.2% | 0% | 0% | 6
BrCC1C[n+]2c(SCc3ccccc3)nc3sc4c(c3c2O1)CCCC4 (configuration not stated) | 3.4% | 10% | -65% | -4
C[C@@H]1O[C@@H](O[C@H]2C[C@@H](O)[C@]3(CO)[C@H]4[C@H](O)C[C@]5(C)[C@@H](C6=CC(=O)OC6)CC[C@]5(O)[C@@H]4CC[C@]3(O)C2)[C@H](O)[C@H](O)[C@H]1O | 2.0% | -1% | ? | ·
Cc1cc(N2CCN(C)CC2)nc2ccccc12 | -1.9% | -6% | -7% | ·
OC12Oc3ccccc3C=C1N1CCC2CC1 (configuration not stated) | 0.4% | -4% | 0% | -1
CCOc1ccc(-n2c(O)c(C=NCCN(CC)CC)c(=O)[nH]c2=O)cc1 | -2.2% | 3% | -6% | -2
Cc1cccc(C#N)c1 | -2.1% | -15% | · | ·
CN1CCN(C(=O)OC2c3nccnc3C(=O)N2c2ccc(Cl)cn2)CC1 (configuration not stated) | · | · | -21% | 0&3
COc1ccc(CCn2c(O)c(C=NC3CC3)c(=O)[nH]c2=O)cc1OC | 0.1% | 3% | -7% | 5
Cc1nc2ccccn2c1P(=S)(N1CCCCC1)N1CCCCC1 | -4.5% | 14% | 11% | -3
O=C(N/N=C/c1c(O)n(Cc2ccc(F)cc2)c(=O)[nH]c1=O)c1ccccc1 | -1.1% | 9% | -31% | -6
COC(=O)C(O)(c1c(C)[nH]c2ccccc12)C(F)(F)F (configuration not stated) | -1.2% | -2% | 0% | -1
COc1ccc(OCC(=O)N2CCN(Cc3c[nH]c4ccccc34)CC2)cc1 | -3.9% | 12% | 0% | 6
CC(C)c1ccc(OCC(=O)N2CCN(C)CC2)c(Br)c1 | 3.4% | -7% | -16% | -3
CC(=O)OC1C2CCCC1C(N1CCCC1)CC2 (configuration not stated) | -2.6%&-1.7% | 4%&2% | -4%&-3% | 4&6
CC1CN(O)C2CCc3nonc3C12O (configuration not stated) | -0.9% | 1% | -2% | 1
O=c1[nH]c(=S)[nH]c(O)c1/C=N/N1CCOCC1 | -1.2% | -3% | 0% | -22
CCc1ccc(-c2nn(Cc3ccccc3)cc2C=O)cc1 | -0.9% | 12% | -35% | -16
CN1C(=O)C(=Cc2ccccc2OCc2ccc(C(=O)O)cc2)C(=O)N(C)C1=O | 1.8% | -4% | -9% | -7
COP(=O)(C#Cc1ccccc1)C(O)c1ccc(Br)cc1 (configuration not stated) | 0.1% | -11% | 9% | 0
CC(=O)/C=C/c1ccccc1 | ? | 0% | · | ·
CN1C(=O)c2ccccc2NC(=O)[C@]12O[C@@H]2c1ccccc1 | -0.2% | 13% | -5% | -2
COc1cccc(C(=O)C2CCCN(Cc3ccc4nsnc4c3)C2)c1 (configuration not stated) | -2.7% | 1% | -2% | 3
CCOC(=O)c1ccc(N=C(c2ccccc2)c2c(O)n(C)c(=O)n(C)c2=O)cc1 | 3.4% | 1% | -15% | -4
CN1C(=O)C(Cc2c[nH]c3ccccc23)C(=O)N(C)C1=O | · | · | -1% | 1
ON1C2CCCCC2N(O)C1c1ccccc1 (configuration not stated) | -6.9% | 26% | -2% | 8
COc1cccc(C(=O)C2CCCN(Cc3ccc(F)cc3)C2)c1 (configuration not stated) | -3.7% | 14% | 4% | ·
Cc1ccc2c(C)cccc2c1 | -5.2% | 5% | · | ·
CCCCCCn1c(=O)c(C(=O)Nc2nc(CC(=O)OCC)cs2)c(O)c2ccccc21 | -2.3% | 1% | 1% | -2
COc1ccc(NC(=O)N2CCC3(CC2)OCCO3)cc1OC | -0.2% | -7% | -7% | -9
Cc1ccc(N2C(=O)NC(=O)/C(=C/c3ccoc3)C2=O)cc1 | ? | ? | -7% | 3

The list is partial; the hit share may differ from the screen's.
